# Bioassay records: PubChem, ICCB-Longwood Screening Facility, Harvard Medical School
# S aureus helic = S. aureus DNA helicase inhibition | purified S. aureus helicase, fluorescence unwinding assay; about half of the hits fall short of the stated cut | inhibition, %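 (tested at about 80 µM)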 | 0.05% of 120,000 active;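 active = both duplicates at 50% or more, or one of them with a favoured structure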;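 note: 0% = mean of negative control wells and 100% = mean of positive control wells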
# MgrA-DNA mod = alters Staphylococcus aureus MgrA binding to DNA; fluorescence polarization; inhibition, %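 (about 10 µg/mL by stock and volumes)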; 0.13% of 84,000 active; AID 602314;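 active = above 50% in either of two replicates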;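 note: 0% = protein plus DNA without compound and 100% = DNA alone without protein; higher means less MgrA bound to DNA so lower polarization; one replicate is shown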
# The depositor's hits bear a star; · = not tested or not shown; & = joins results of further samples. The list is partial; count on the stated rates, not on these rows.
S aureus helic,MgrA-DNA mod,SMILES
2,-4.8,Cn1ccnc1C(O)c1ccc(N)cc1 (centres undefined)
-2,·,N#Cc1ccccc1OCc1csc(-c2cccs2)n1
16,1.2,CCCCn1cnc2c(cnn2-c2ccc(F)cc2)c1=O
-11,0.4,O=c1c2ccccc2nc(-c2ccccc2)n1CCCn1ccnc1
13,3.8,COC(CNC(=O)c1cc(-c2ccccc2)nc2ccccc12)OC
7,·,CCS(=O)(=O)c1ccc2oc(SCC(=O)Nc3ccc4c(c3)OCCO4)nc2c1
·,0.1,Cc1cc(C(=O)Oc2cc(C)c(Cl)c(C)c2)no1
0,2.9,C=CCn1c(CSCc2ccc(F)cc2)n[nH]c1=S
12,·,COc1cccc(NC(=O)c2ccc3nsnc3c2)c1
·,-4.0,COc1cccc(-c2nc3ccccc3c(=O)n2NC(=O)/C=C/c2ccc(Br)cc2)c1
-28,-0.1,Cc1c(C(=O)CC#N)c2ccccn2c1CCC#N
-19,0.0,CC(C)c1ccc(NC(=O)CSc2nccn2C)cc1
·,-0.9,Cc1cccc(C)c1Nc1scc(C)[n+]1C
·,-0.2,CCOc1ccc(NC(=S)NC(Cc2ccccc2)c2ccccc2)cc1 (centres undefined)
6,·,CS(=O)(=O)c1ccc(NC(=O)c2ccc3c(c2)OCO3)cc1
·,-2.0,CC(C)(C)C(=O)N1CCCC1C(=O)O (centres undefined)
·,2.8,OC(CNCCc1ccccc1)c1ccccc1 (centres undefined)
·,-0.2,Cc1cccc(NC(=S)Nc2ccccn2)c1
-8,·,O=C(c1ccc(Cn2cc(Br)cn2)o1)n1cccn1
-2,·,CC(C)[C@H](NC(=O)c1ccco1)C(=O)Nc1ccc(OC(F)F)cc1
8,·,N#CC1(NC(=O)CN2CCN(c3ccc(C(F)(F)F)cn3)CC2)CCCC1
-17,·,O=C(CN1C(=O)c2cccnc2Oc2ccccc21)NCCc1ccccc1
-5,·,O=C(OCc1cccc(Br)c1)C1=COCCO1
2,-0.9,CN1CCCC(OC(=O)c2cncc(Br)c2)C1 (centres undefined)

# Grouped by structure, those above with four or more nitrogen atoms
S aureus helic,MgrA-DNA mod,SMILES
16,1.2,CCCCn1cnc2c(cnn2-c2ccc(F)cc2)c1=O
-11,0.4,O=c1c2ccccc2nc(-c2ccccc2)n1CCCn1ccnc1
-8,·,O=C(c1ccc(Cn2cc(Br)cn2)o1)n1cccn1
8,·,N#CC1(NC(=O)CN2CCN(c3ccc(C(F)(F)F)cn3)CC2)CCCC1

# (further entries)
S aureus helic,MgrA-DNA mod,SMILES
·,22,O=C(Oc1cccc2c1C(=O)C=CC2=O)c1ccccc1
-7,·,Cc1cc(C)cc(OCCSc2nccn2C)c1
4,-6.2,Cc1ccc(-c2nc(C)sc2CC(=O)O)cc1
-1,·,Cn1c(SCCCn2c(=O)[nH]c3ccccc32)nnc1C1COc2ccccc2O1 (centres undefined)
-3,8.3,Cc1ccc(S(=O)(=O)N2CCN(C(=O)c3ccccc3)C2c2ccccc2)cc1 (centres undefined)
12,·,Cc1nnc(C)n1/N=C/c1ccc(N(C)CCO)cc1
6,·,CNS(=O)(=O)c1cccc(C(=O)OCc2cc(=O)oc3c(C)c(O)ccc23)c1
·,-0.5,CSc1ccc(/C=C2\N=C(c3ccccc3)OC2=O)cc1
-3,·,Cc1csc(SCC(=O)NC(=O)C2CCCCC2)n1
-1,·,Cc1nnc(SCc2nc(-c3ccsc3)no2)n1C1CC1
13,0.2,c1ccc(C2CCCC(c3ccccc3)S2)cc1 (centres undefined)
10,·,O=C(Cc1ccc(-n2cccc2)cc1)NCc1cccs1

# Complete entries, quoted from the list. Values in the order: S aureus helic, MgrA-DNA mod
# Cc1ccc(S(=O)(=O)N2CCN(C(=O)c3ccccc3)C2c2ccccc2)cc1 (centres undefined) is listed with -3, 8.3
# Cc1csc(SCC(=O)NC(=O)C2CCCCC2)n1 is listed with -3, ·

# Five compounds from above, arranged by the value under MgrA-DNA mod, falling:
compound	MgrA-DNA mod
O=C(Oc1cccc2c1C(=O)C=CC2=O)c1ccccc1	22
Cc1ccc(S(=O)(=O)N2CCN(C(=O)c3ccccc3)C2c2ccccc2)cc1 (centres undefined)	8.3
c1ccc(C2CCCC(c3ccccc3)S2)cc1 (centres undefined)	0.2
CSc1ccc(/C=C2\N=C(c3ccccc3)OC2=O)cc1	-0.5
Cc1ccc(-c2nc(C)sc2CC(=O)O)cc1	-6.2

# Following part
S aureus helic,MgrA-DNA mod,SMILES
2,·,CCN(CC)S(=O)(=O)c1cccc(C(=O)Nc2cccc(F)c2)c1
0,0.0,CC12CC3(C)CC(C)(C1)CC(C(=O)NCCc1ccc(S(N)(=O)=O)cc1)(C2)C3
-23,·,O=C(Oc1ccc2oc3c(c2c1)CCCC3)c1ccco1
2,-10,O=C(Nc1ccc(C(=O)O)c(O)c1)c1cccs1
-5,3.7,CCN(CC)c1ccc(/C=N/O)cc1
-34,·,Cc1onc(-c2ccccc2)c1CNS(=O)(=O)c1ccccc1
·,-0.6,O=C(Nc1ccc(Cl)cc1)c1ccccc1Cl
24,·,COC(=O)NC(c1ccccc1)c1ccccc1
13,·,CC1CCc2sc(NC(=O)Cc3ccccc3)c(C(N)=O)c2C1 (centres undefined)
6,-8.7,CCN(Cc1ccccc1)C(=O)C1CCN(Cc2ccc(OC)cc2)CC1
6,·,COc1ccc(NS(=O)(=O)c2ccc3[nH]c(=O)c(=O)[nH]c3c2)cc1OC
·,-1.8,COc1ccc(C(=O)/C=C/Nc2ccccc2C#N)cc1
15,·,COc1ccc(Cl)cc1NC(=O)CN(C)c1nnnn1-c1ccccc1
6,1.2,CCOc1ccc(NC(=O)c2sc(C)c(CC(=O)Nc3ccc(Cl)cc3)c2O)cc1
-7,·,FC(F)(F)c1ccccc1/C=N/n1cn[nH]c1=S
-14,·,O=C(NCCO)c1sc2cc(F)ccc2c1Cl
-4,·,CC1CCC(=NO)CC1 (centres undefined)
34,·,Cc1ccc(Oc2nc3ccccc3n3c(C)nnc23)cc1C
-15,-0.6,NC(=O)CSc1nnc(SCCOc2ccccc2)s1
-37,·,Cc1c(NC(=O)c2ccc(C(=O)O)cc2C(=O)O)c(=O)n(-c2ccccc2)n1C
8,-2.7,CCOc1ccc(-c2cc(CCCC(=O)NCCc3ccccc3)no2)cc1
·,-0.7,COc1cc(NC(=O)C(C)(C)C)ccc1Br
-8,·,CC(=O)Nc1ccc(S(=O)(=O)N(C)CC(=O)OCc2cn3cc(Cl)ccc3n2)cc1
-26&7,4.5,O=c1cc(-c2ccccc2)nc(-c2ccc(Br)cc2)[nH]1
·,-2.1,COC(=O)c1ccc(Oc2ccc(Cl)cc2Cl)o1
·,-0.7,Fc1cccc(Cl)c1CN1CCN(CCCNc2nccc(C(F)(F)F)n2)CC1
-5,·,CCn1nnc2sc(-c3ccccc3)cc2c1=O
-13,-5.1,c1cn2cc(Cc3nnc4n3CCC4)nc2s1
-12,·,O=C(O)/C=C/c1ccc(Cl)cc1Cl
-19,1.1,O=S(=O)(c1ccc(-c2ccccc2)cc1)N1CCOCC1
4,·,CC(C)CC(=O)N1CCN(Cc2ccc3c(c2)OCO3)CC1
11,-1.2,CC1(C)C2CC=C(/C=N/n3cnnc3)C1C2 (centres undefined)
14,·,CC(=O)Nc1ccccc1OCc1nnc(-c2ccccc2)o1
17,·,Oc1c(N=Nc2ccccc2)cc2c3c1CCCN3CCC2
·,-0.8,N/C(=N\O)c1ccc(OC(F)(F)F)cc1
8,0.7,O=C(COc1ccc(C2N(Cc3ccccc3)CCN2Cc2ccccc2)cc1)N1CCOCC1
10,-0.9,O=C(c1ccccc1)c1cccc(NC(=O)C2CC2)c1
3,·,COc1ccc(C(=O)OCC(=O)Nc2ncc(Cl)c(C)c2Cl)c(OC)c1
3,-1.9,O=C(c1cc2sccc2n1Cc1ccccc1)N1CCN(c2ccccc2F)CC1
12,·,COC(=O)Cn1c(=NC(C)=O)sc2cc(Br)ccc21
·,1.5,O=C(CSc1ncccc1C(F)(F)F)Nc1ccc(Cl)cc1
-20,·,O=C1OC(NS(=O)(=O)c2ccc(Cl)cc2)c2ccccc21 (centres undefined)
·,-0.9,Cc1c(C)c2c(c(C)c1O)CCC(C)(C(=O)O)O2 (centres undefined)
-3,·,Cc1cccc(NC(=O)C(C)N2CCNC(=O)C2)c1 (centres undefined)
-7,·,NNC(=O)c1ccc(OCc2ccc(F)cc2)cc1
10,·,Cc1ccc(/C(N)=N/OC(=O)c2ccccc2)cc1
6,0.0,CC1(C)CC(NCc2ccccc2)CCO1 (centres undefined)
-8,-2.1,COC(=O)C12CC3CC(CC(Br)(C3)C1)C2
-19,·,CCN1CCN(C(c2cccs2)C(C)NC(=O)Cc2ccc(F)cc2)CC1 (centres undefined)
·,3.5&0.7,CCN1CCCC(OC(=O)C(c2ccccc2)c2ccccc2)C1 (centres undefined)
-10,-3.1,Nc1nc2ccc(Oc3ccccc3)cc2s1
9,·,O=C(CSc1nnc(COc2ccc(Cl)cc2)o1)N1CCc2ccccc21
16,0.4,O=C(O)COc1ccc(/C=C2/NC(=S)NC2=O)cc1
9,-2.1,Cc1oc2c(c1C(=O)NCc1cc(C(=O)O)co1)CCCC2
-17,-0.3,CC1(C)CC(C(=O)COc2ccc3ccc(=O)oc3c2)CCO1 (centres undefined)
25,·,Cc1onc(-c2ccccc2)c1NC(=O)N(CCC#N)C(C)C
-2,2.6,c1ccc(-c2nc(C3CCCCC3)no2)cc1
·,2.0,O=C(CN1C(=O)/C(=C/c2ccc(Br)cc2)SC1=S)Nc1nccs1
12,·,CC(C)(C)NC(=O)c1ccc(COc2ccc(Cl)cc2Cl)o1
·,2.9,CC(=O)N1CCc2cc(S(=O)(=O)Nc3ccc(Cl)cc3)ccc21

# Next part
S aureus helic,MgrA-DNA mod,SMILES
-4,·,O=C(CCc1nnc2n(Cc3ccc(F)cc3)c(=O)c3ccccc3n12)N1CCOCC1
-9,·,CCOC(=O)c1cc(-c2cccc(C(F)(F)F)c2)n[nH]1
12,-1.5,O=C(CSc1ccccn1)Nc1ccc(Cl)cc1
11,·,CN(c1ccc2nc3ccccc3c(=O)n2n1)C1CCCCC1
13,1.8,O=C(O)CCC(=O)N1CCN(c2nc(-c3ccccc3)c3cc(Br)ccc3n2)CC1
22,·,CC(C)(C)c1ccc(C(=O)Nc2ccc3oc(-c4ccncc4)nc3c2)cc1
15,·,COc1cccc(-c2nc(CS(=O)(=O)CC(=O)N3CCCCC3)c(C)o2)c1
·,1.7,CCC(C)NC(=O)c1ccc(N2CCCC2=O)cc1 (centres undefined)
-4,·,CC(=O)NS(=O)(=O)c1ccc(NC(=O)c2c(-c3ccccc3)noc2C)cc1
27,·,O=C1c2cccnc2C(Nc2ccc(Br)cc2)N1C1CCCCC1 (centres undefined)
4,·,NC(=Nc1ccccc1)C(F)(F)F
-5,·,Cc1noc(C)c1/C=N/NC(=S)NCCc1ccccc1

# Entries listed so far containing a tert-butyl group:
S aureus helic,MgrA-DNA mod,SMILES
·,-2.0,CC(C)(C)C(=O)N1CCCC1C(=O)O (centres undefined)
·,-0.7,COc1cc(NC(=O)C(C)(C)C)ccc1Br
12,·,CC(C)(C)NC(=O)c1ccc(COc2ccc(Cl)cc2Cl)o1
22,·,CC(C)(C)c1ccc(C(=O)Nc2ccc3oc(-c4ccncc4)nc3c2)cc1

# Next section.
S aureus helic,MgrA-DNA mod,SMILES
6,·,COc1ccc(Cc2n[nH]c(=O)c3ccccc23)cc1OC
·,3.4,S=C(Nc1ccc(Cl)cc1)N1CCN=C1Nc1ccc(Cl)cc1
-3,·,N#CC(c1nc2ccccc2nc1Cl)S(=O)(=O)c1ccccc1 (centres undefined)
8,0.7,O=C1OC2C(C(=O)O)Sc3c(sc(=O)n3-c3ccccc3)C2c2cc(Br)ccc21 (centres undefined)
·,-0.2,CC1N=C(SCc2c(F)cccc2Cl)N2C(C)N=C(SCc3c(F)cccc3Cl)N12 (centres undefined)
-27,1.3,CN1/C(=c2/sc(=C3C(=O)NC(=S)NC3=O)n(C)c2=O)Sc2ccccc21
·,1.4,O=[N+]([O-])c1ccc(N2CCCCC2)c(Cl)c1
-21,2.8,O=C(CSc1nc2ccccc2[nH]1)NO
·,-3.0,Cn1cnnc1SCc1nc(-c2ccsc2)no1
9,1.5,Cc1csc(/C=C2\CCc3c(cnc4ccc5ccccc5c34)C2=O)c1
9,-2.4,COC(=O)C1=C(CN2CCCC2)NC(=O)NC1c1ccc(OC)cc1 (centres undefined)
·,1.4,C=CCNc1ncnc2c1cnn2C
13,-1.8,CC(C)(C)C(=O)C1=C(O)C(=O)N(Cc2ccccc2)C1c1cccnc1 (centres undefined)
-4,·,Cc1ccc(NNC(=O)c2ccno2)cc1Cl
14,·,CCOC(=O)C1=C(N)OC2=C(C(=O)CCC2)C1c1cccs1 (centres undefined)
14,0.9,COc1ccc(-n2nnnc2SCC(=O)c2ccc3c(c2)OCCO3)c(OC)c1
12,·,CCOc1ccc(C2C(C(=O)O)c3ccccc3C(=O)N2CCN2CCOCC2)cc1 (centres undefined)
5,9.0,Cc1cccc(N=CC=C2OC(C)(C)C(C)(C)O2)c1
-3,·,C=CCOn1c(=O)c(=O)n(OCC=C)c2ccccc21
-9,2.3,CCN(CC)c1nc2c(C)cccn2c(=O)c1/C=N/O
-1,·,Cc1cc2cc(CNS(C)(=O)=O)ccc2n1C
·,3.8,Cc1cc(SCc2ncon2)c(Cl)cc1Cl
·,-9.7,O=C(O)C1C2CCC(C2)C1C(=O)O (centres undefined)
28,·,Cn1cnc(S(=O)(=O)N2CCCN(C(=O)OC(C)(C)C)CC2)c1
-4,-0.7,CCOC(=O)c1c(NC(=O)c2ccc(OC)cc2)sc2c1CC(C)CC2 (centres undefined)
8,4.3,CN(C(=S)NCc1ccccc1)C1CCCCC1
-17,3.5,COc1ccc(-n2c3c(cc(C(N)=O)c2=O)C(=O)CCC3)cc1
4,0.5,Cn1cc(CCC(=O)NCc2ccccc2)c2ccccc21
36,·,N#CCCn1nc(-c2ccc(Cl)cc2)cc1-n1c(C(F)(F)F)nc2ccccc21
·,4.9,CN(C)c1nc2c(N)ncnc2n1C1OC(CO)C(O)C1O (centres undefined)
-24,·,Cc1ccc(F)cc1NC(C#N)c1ccccc1 (centres undefined)
-9,-0.7,Cc1ccccc1OCC(=O)Nc1ccccc1Nc1ccccc1
